GALR2 agonist = GALR2 receptor agonists, primary screen, cell-based. GALR2-expressing cells, agonist activation read-out. hit rate 0.48% among 140,000. Galanin receptor type 2 (Homo sapiens), O43603. AID 803, 2007. activation, %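 (tested at 5 µM)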;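 active = above mean plus 3 SD of all compounds, about 5% in these data, not always enough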;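 also: 0% = vehicle buffer wells and 100% = reference agonist at full effect; tested in CHO reporter cells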
Target sequence (O43603 whole entry, looked up): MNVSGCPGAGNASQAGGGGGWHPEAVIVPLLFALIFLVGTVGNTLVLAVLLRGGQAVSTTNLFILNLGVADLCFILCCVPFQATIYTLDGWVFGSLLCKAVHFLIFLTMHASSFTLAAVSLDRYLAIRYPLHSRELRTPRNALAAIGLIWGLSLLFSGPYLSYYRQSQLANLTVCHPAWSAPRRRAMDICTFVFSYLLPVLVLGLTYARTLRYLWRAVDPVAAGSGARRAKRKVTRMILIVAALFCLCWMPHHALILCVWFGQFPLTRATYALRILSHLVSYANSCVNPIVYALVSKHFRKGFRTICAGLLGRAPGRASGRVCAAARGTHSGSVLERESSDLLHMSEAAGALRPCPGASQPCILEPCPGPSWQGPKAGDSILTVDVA
PKD1 inh = inhibitors of human PKD1 kinase, biochemical, fluorescence polarization; hit rate 0.056% among 200,000; Serine/threonine-protein kinase D1 (Homo sapiens), Q15139; inhibition, %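 (about 10 µM by stock and volumes)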; PKD1 kinase fluorescence polarization assay;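 active = inhibition of 50% or more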;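 also: controls were vehicle for no effect and a reference inhibitor for full effect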
RGS16-Gao = modulators of RGS16 binding to Galphao, primary screen, biochemical, human proteins, multiplexed bead flow cytometry; binding response (% of control), % at 10 µM; bead-based flow cytometry RGS16-Galphao binding, fluorescence; actives lie on both sides; Regulator of G-protein signaling 16 (Homo sapiens) + Guanine nucleotide-binding protein …; hit rate 0.38% among 220,000;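 active = below 25% or above 175%, edge rows of some plates excepted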;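 also: Galphao activated by GDP with aluminum fluoride before binding; 100% = wells without compound and 0% = beads without RGS; some results beyond the cut were filed as inactive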
Target sequence (O15492 whole entry, looked up): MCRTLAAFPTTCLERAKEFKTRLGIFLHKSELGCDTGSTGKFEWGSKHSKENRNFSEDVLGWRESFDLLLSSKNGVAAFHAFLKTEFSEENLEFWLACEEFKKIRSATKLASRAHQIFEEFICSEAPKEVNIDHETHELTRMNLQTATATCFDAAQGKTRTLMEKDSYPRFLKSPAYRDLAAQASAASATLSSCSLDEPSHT
Target sequence (P09471 whole entry, looked up): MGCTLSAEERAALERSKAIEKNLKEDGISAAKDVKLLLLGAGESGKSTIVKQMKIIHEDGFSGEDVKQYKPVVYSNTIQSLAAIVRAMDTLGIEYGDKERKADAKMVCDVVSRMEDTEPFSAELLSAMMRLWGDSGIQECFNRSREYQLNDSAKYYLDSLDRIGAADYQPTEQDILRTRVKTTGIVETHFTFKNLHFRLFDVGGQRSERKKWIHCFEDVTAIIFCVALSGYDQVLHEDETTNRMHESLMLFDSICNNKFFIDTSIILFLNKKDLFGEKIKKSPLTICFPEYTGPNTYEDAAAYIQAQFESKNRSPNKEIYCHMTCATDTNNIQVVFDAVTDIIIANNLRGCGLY
Insulin prom inh = inhibitors of insulin promoter-driven GFP, primary screen, imaging, TRM-6 cells (human fetal islet line), eGFP reporter, cell count | reporter expression induced with tamoxifen | inhibition, % at 2 µM | hit rate 0.9% among 130,000 | AID 1273, 2008;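 active = inhibition above the mean plus 3 SD, with well images judged a real hit on visual review, cut at about 60% in these data, passing the limit was not always enough; inconclusive = inhibition over the cutoff but images rejected on review; inactive = inhibition not above the cutoff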
HSV augment = enhancers of HSV replication in host cells, fold increase, host cell viability; hit rate 0.005% among 220,000; maximum fold increase; HSV replication augmentation in cells;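 active = peak rise of 1.5-fold or more in the series; inconclusive = self-fluorescent or not available for retest; tested in PC3 cells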;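 also: first round at 10 µM; read as green reporter fluorescence; hits show the peak of a series up to 25 µM; 1 = signal of infected wells without compound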
Insulin prom inh cell count = recorded beside Insulin prom inh, whose call it bears; normalized cell count, %; measured here: cell count, toxicity; reference of the scale not given here;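 cells exposed to compound for 48 h; stained nuclei by imaging scaled within each plate; lower means fewer cells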
HSV augment primary fold = second read-out of HSV augment, no call of its own (marks repeat the call); fold increase; compound at 10 µM; measured here: primary screen fold increase 10 uM; tested in PC3 cells;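 GFP signal in the first replicate; 1 = infected wells without compound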
Numbers without * were called inactive; i = inactive; ? = inconclusive; . = not tested or not shown. Outcome played no part in choosing rows; overall some 1.2% were active at least once.

Structure	GALR2 agonist	PKD1 inh	RGS16-Gao	Insulin prom inh	Insulin prom inh cell count	HSV augment	HSV augment primary fold
Cc1cc(NC(=O)CSc2nnc(Nc3ccccc3)s2)no1	-0.3	-1	105	-2	101	.	.
CC1Cc2ccccc2N1S(=O)(=O)c1cccs1 (stereo unspecified)	-0.1	-2	84	-67	88	i	1
CC(C)NC(=O)C1CCN(C2CCN(C(=O)/C=C/c3cccs3)CC2)CC1	.	.	100	.	.	i	0.86
O=Cc1ccc(O)c2ncccc12	.	.	100	.	.	i	1
Cc1nc2sc3c(c2c(=O)[nH]1)CCCC3	.	.	100	.	.	i	1
CC1CCCC(N2CCN(C(=O)c3cccc(F)c3)CC2)C1 (stereo unspecified)	-1.8	0	103	.	.	i	1.1
O=C(Nc1ccccc1)n1cc(-c2ccccn2)c(N2CCOCC2)n1	.	-2	103	-54	105	.	.
COc1ccc(CN2CCN(c3cccc(C)c3C)CC2)cc1OC	-0.2	3	100	.	.	i	0.81
COc1cc(C(=O)N/N=c2/sc3ccccc3n2C)cc(OC)c1OC	0.0	-10	98	3	113	i	0.88
CC(C)c1ccc(S(=O)(=O)N2CCN(CC(=O)Nc3ccc4c(c3)OCO4)CC2)cc1	-0.3	-7	100	8	100	i	0.91
COCc1cc(C)nc(SCC(=O)Nc2cccc(C)c2C)c1C#N	-1.7	-7	100	25	126	i	0.93
CCOC(=O)CCC(=O)NCc1ccc2c(c1)cc(C)n2C	-1.5	-2	178	.	.	i	0.95

For reference, part of the list above.
Structure	GALR2 agonist	PKD1 inh	RGS16-Gao	Insulin prom inh	Insulin prom inh cell count	HSV augment	HSV augment primary fold
Cc1cc(NC(=O)CSc2nnc(Nc3ccccc3)s2)no1	-0.3	-1	105	-2	101	.	.
CC1Cc2ccccc2N1S(=O)(=O)c1cccs1 (stereo unspecified)	-0.1	-2	84	-67	88	i	1

Following part:
Structure	GALR2 agonist	PKD1 inh	RGS16-Gao	Insulin prom inh	Insulin prom inh cell count	HSV augment	HSV augment primary fold
COc1cc(SC#N)ccc1N=Cc1c(C)[nH]n(-c2ccc(C)cc2)c1=O	18*	-4	95	38	151	i	0.76
C=CCn1c(SCc2nc3cc(C(=O)OC)ccc3c(=O)[nH]2)nc2sc(CC)cc2c1=O	0.6	-3	113	11	133	i	0.83
O=C(Nc1nnc(COc2ccccc2)s1)Nc1ccccc1F	.	.	101	.	.	i	0.9
Clc1ccc(C2=NNC(=NCc3ccc4c(c3)OCO4)SC2)cc1	-1.1	-5	99	.	.	i	1
O=C1OCC/C1=C\c1ccccc1O	0.0	-11	134	-7	83	i	1
CCC(=O)c1ccc(OCC(O)CN(C)C2CCCCC2)cc1 (stereo unspecified)	-3.2	-2	107	31	92	i	1.1
Cc1ccc(-n2nc(C(=O)O)nc2-c2ccccc2)cc1	-2.8	4	102	-13	113	i	0.95
O=C(CCN1CCN(c2ccccc2)CC1)Nc1ccc(OCc2ccccc2)cc1	-2.2	4	103	29	62	i	0.93
CCN(CC)C(=O)C1CCCN(Cc2nc(-c3cccs3)no2)C1 (stereo unspecified)	.	-3	96	.	.	i	1
O=Cc1cn(CCC(=O)O)nc1-c1cccc(Br)c1	.	0	111	-6	108	i	0.96
CCOC(=O)N1CCC(N2Cc3cccc(C(=O)NC(C)c4ccc5c(c4)OCCO5)c3C2=O)CC1 (stereo unspecified)	-0.6	1	106	.	.	i	1
O=C(CCN1CCCCCC1)Nc1cccc(Cl)c1	-1.0	-6	90	-24	96	i	0.95
C=CCc1c(C)[nH]c2c(OC)cccc2c1=S	.	-4	95	.	.	i	0.97
Cc1ccc(Nc2nnc(SCC3CCCCO3)s2)cc1 (stereo unspecified)	-0.7	0	120	.	.	i	1
COc1ccc(-c2cc(C(=O)N/N=C/c3ccc(OC)c(COCC(F)(F)C(F)F)c3)c3ccccc3n2)c(OC)c1	-1.6	-3	110	31	61	i	0.63
COC(=O)C(=C/C(C)=C/c1cccs1)C(=O)OC	.	-3	86	33	103	i	0.67
Cc1ccc(C(C(=O)NCc2ccc(F)cc2)N(CCCO)C(=O)C2COc3ccccc3O2)o1 (stereo unspecified)	.	0	102	-20	83	i	0.72
CCC(=Nc1ccc(Cc2ccncc2)cc1)c1c(O)n(C)c(=O)n(C)c1=O	-1.0	-6	106	.	.	i	0.99
COc1ccc(C(=O)Nc2ccc3c(c2)nc2n3CCSC2)cc1	-1.3	-2	103	.	.	i	0.77
COc1ccccc1OCc1ccc(C(=O)n2nc(C)c(Cl)c2C)o1	-3.5	6	99	-130	147	i	0.95
O=C(CNCCO)N1N=C(c2cccs2)CC1c1cccs1 (stereo unspecified)	.	5	61	-40	72	i	1.1
Cc1occc1C(=O)NNC(=O)c1cccc(F)c1	.	1	100	.	.	i	0.91
O=C(O)CC(C(=O)O)N1C(=O)/C(=C/c2ccc(-c3nc4ccccc4s3)o2)SC1=S (stereo unspecified)	-2.0	33	97	14	69	.	.
CN(C)C(=O)c1cccn1-c1ncc(C(F)(F)F)cc1Cl	.	-7	99	.	.	i	0.92
Cn1c(SCn2nnc3ccccc3c2=O)nc2ccccc2c1=O	.	-2	102	.	.	i	0.94
CCCOc1ccc(C2c3c(oc4ccccc4c3=O)C(=O)N2CCCN2CCOCC2)cc1 (stereo unspecified)	-1.7	-15	96	.	.	i	0.87
CCOc1cccc(C(=O)Nc2nccs2)c1	-3.8	3	98	-456	47	i	0.9
O=C(Nc1ccc2c(c1)OCO2)C1CCN(C(=O)c2cccs2)CC1	0.0	-5	101	30	112	i	0.93
CC(=O)N1CCc2cc(S(=O)(=O)NCCC(=O)N3CCc4ccccc4C3)ccc21	-0.6	6	95	.	.	i	0.88
O=S(=O)(Cc1ccccc1)C1CCCCC1O (stereo unspecified)	.	.	99	.	.	i	0.93
CCCCCn1c(SCC(=O)CC(=O)OCC)nc2cc(C(=O)N3CCC(C(N)=O)CC3)ccc2c1=O	.	-2	100	36	128	i	0.97
Cc1nnc2ccc(N3CCCC3)nn12	-2.1	-3	103	28	90	i	1
COc1ccccc1CNS(=O)(=O)N(C)C	.	-1	95	-33	94	i	0.96
O=C(C[n+]1ccc(Cc2ccccc2)cc1)Nc1ccccc1	.	-1	93	.	.	i	0.95
Cc1cc(C)n(CC(=O)NC2C(=O)N3C(C(=O)O)=C(CSc4nnc(C)s4)CSC23)n1 (stereo unspecified)	.	-1	107	.	.	i	0.97
O=C(O)c1ccc(-n2cc(-c3cc4ccccc4oc3=O)[nH]c2=S)cc1	.	-1	37	36	51	i	0.94
Cc1oc(C(C)(C)C)cc1C(=O)Nc1cccc(/C=C\C(=O)O)c1	-1.5	-17	103	-33	109	i	0.93
CCOC(=O)/C(C(N)=NC)=C(\O)c1ccccc1	-1.2	1	103	-374	83	i	0.83
CCCn1nc(-c2ccccc2)c2nc3ccccc3nc21	-1.1	-9	58	.	.	?	.
COc1cccc2cc(C(C)N(CCCN3CCOCC3)C(=S)Nc3ccc(C)c(C)c3)oc12 (stereo unspecified)	.	-6	94	-25	42	i	1.1
COc1ccc(OC)c(-c2cc(C(=O)Nc3c(C)nn(Cc4ccccc4)c3C)no2)c1	-0.7	-1	99	20	90	i	0.91
Nc1ccc(Sc2cc(Cl)nc(N)n2)cc1	-0.8	-1	89	7	73	i	0.95
O=C(CSc1nnc2c(n1)[nH]c1ccccc12)Nc1ccc(S(=O)(=O)Nc2ncccn2)cc1	.	-8	113	24	60	i	0.94
C/C(CC(=O)N1CCN(C=O)CC1)=N\NC(=O)c1ccc(Br)cc1	.	2	75	-22	49	i	1
O=C(COC(=O)c1cccc([N+](=O)[O-])c1)NCc1ccc2c(c1)OCO2	-1.4	-7	100	.	.	i	0.91
COc1ccc(OC)c(C2=NOC(C(=O)Nc3cc(C)nn3-c3ccccc3)C2)c1 (stereo unspecified)	-0.1	-3	101	.	.	i	1.1
O=C1Nc2ccccc2N=C(c2ccccc2)C1N1CCOCC1 (stereo unspecified)	-1.8	10	101	.	.	i	0.94
O=C(Nc1ccc2c(c1)OCO2)C(c1ccccc1)N1CCCCC1 (stereo unspecified)	.	3	102	.	.	i	0.9
CCN=C1S/C(=C\c2ccc(-c3cccc(C(=O)O)c3)o2)C(=O)N1CC	.	2	108	.	.	i	1.1
CCc1ccc2[nH]c(=O)c(CN(CCN(CC)CC)C(=O)NC3CCCCC3)cc2c1	.	.	102	.	.	i	0.95
Cc1cc(NC(=O)NN2CCOCC2)nn1-c1c(Cl)cccc1Cl	.	.	107	.	.	i	0.88
Cc1cccc(C)c1NC(=O)C(c1ccccc1)N1CCOCC1 (stereo unspecified)	-2.2	-2	104	-335	84	i	0.91
COCCNC(=S)N(CCc1c(C)[nH]c2ccccc12)Cc1ccco1	.	-2	104	-94	78	i	0.89
CCCc1cc(=O)[nH]c(SCC(=O)c2cc(C)n(-c3c(C)n(C)n(-c4ccccc4)c3=O)c2C)n1	.	0	105	.	.	i	1
O=c1c(Cc2c(F)cccc2Cl)c(O)ccn1Cc1ccc2c(c1)OCO2	.	0	105	35	78	i	1
CCOC(=O)Cc1csc(NC(=O)COc2c(C)cccc2C)n1	.	-3	93	8	100	i	1
COc1ccc(C2=NN(C(C#N)c3ccc(OC)c(OC)c3)C(c3ccccc3)C2)cc1 (stereo unspecified)	-2.2	-14	89	30	133	i	0.79
O=C(c1ccccc1)c1ccc(-c2ccc(O)cc2)cc1	.	.	104	.	.	i	0.77
Cc1cc(NC(=O)c2ccc([N+](=O)[O-])o2)ccc1NC(=O)c1ccco1	.	-2	100	-157	10	i	0.68
COCCn1c(SCC(=O)N2CCCc3ccccc32)nnc1-c1ccoc1C	-1.7	-2	104	33	118	i	0.97

Additional records:
Structure	GALR2 agonist	PKD1 inh	RGS16-Gao	Insulin prom inh	Insulin prom inh cell count	HSV augment	HSV augment primary fold
CCOc1cccc2cc(C(=O)N3CCc4ccccc4C3)c(=O)oc12	-1.4	-4	94	-31	103	i	0.94
CCOC(=O)c1ccc(CN(Cc2ccc(C)cc2)S(=O)(=O)c2cccc([N+](=O)[O-])c2)cc1	-1.3	-9	87	-14	114	i	0.95
C=CCN1CCN(C(c2cccc(OC)c2OC)c2nnnn2CCC(C)C)CC1 (stereo unspecified)	.	3	101	33	87	i	0.98
CCn1c(COc2cccc3ccccc23)nnc1SCC(=O)OC1CCCCC1	-3.0	-2	96	14	135	i	0.93
CN(CC(=O)Nc1ccncc1)S(=O)(=O)c1ccccc1	-1.7	-5	99	-7	101	i	0.98
COc1ccc(C/C(N)=N/n2cnnc2)cc1	0.1	-2	93	-86	109	i	0.84

Some of these compounds in order of length of the SMILES, lowest first:
Structure	GALR2 agonist	PKD1 inh	RGS16-Gao	Insulin prom inh	Insulin prom inh cell count	HSV augment	HSV augment primary fold
COc1ccc(C/C(N)=N/n2cnnc2)cc1	0.1	-2	93	-86	109	i	0.84
CN(CC(=O)Nc1ccncc1)S(=O)(=O)c1ccccc1	-1.7	-5	99	-7	101	i	0.98
CCOC(=O)c1ccc(CN(Cc2ccc(C)cc2)S(=O)(=O)c2cccc([N+](=O)[O-])c2)cc1	-1.3	-9	87	-14	114	i	0.95

Screens deposited in PubChem BioAssay by several laboratories.
